Screening results as filed in PubChem.
E coli growth = inhibitors of Escherichia coli growth | 0.21% of 330,000 active | OD600, 23 h; active compounds read low | AID 1053175 | OD600 absorbance (no concentration beside the values);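 active means OD600 absorbance below the run mean of sample wells minus 3.6 SD, in any replicate, cut at about 0.56 in these data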;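 further: stock transfer was 300 nL into about 60 µL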
UCH37 DUB inh = inhibitors of human deubiquitinating enzyme UCH37. Q9Y5K5. purified proteasome/UCH37, Ub-AMC cleavage fluorescence. inhibition, % (concentration not given with the values). 0.33% of 330,000 active. AID 588478;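 active means mean of two replicates above 20%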;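 further: 0% = compound-free wells with enzyme and 100% = wells lacking proteasome; stock transfer was 100 nL into about 20 µL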
Target sequence (Q9Y5K5 whole entry, looked up): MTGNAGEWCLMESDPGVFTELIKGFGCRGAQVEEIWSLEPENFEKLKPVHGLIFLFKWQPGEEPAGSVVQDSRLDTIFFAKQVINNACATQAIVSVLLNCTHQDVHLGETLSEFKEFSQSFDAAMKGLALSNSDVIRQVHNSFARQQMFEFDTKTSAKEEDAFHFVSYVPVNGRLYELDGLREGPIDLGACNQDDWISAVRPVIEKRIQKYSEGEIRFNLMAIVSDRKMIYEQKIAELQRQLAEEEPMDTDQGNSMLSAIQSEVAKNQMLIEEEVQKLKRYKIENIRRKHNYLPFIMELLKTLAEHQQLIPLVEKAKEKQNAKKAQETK
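Material: Human UCH37 enzyme supplied as purified proteasome complex | Schedule: 30 min compound-proteasome preincubation then 25 min substrate reaction, room temperature | Detection: AMC fluorescence from Ub-AMC cleavage, excitation 355 nm, emission 460 nm | Benchmarks: Wells without proteasome as full block, compound-free enzyme plus substrate as uninhibited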
FGF22 binding = FGF22 (human) thermal shift binding; Q9HCT0; recombinant FGF22 thermal shift, SYPRO orange fluorescence; percent of sucrose octasulfate shift, DMSO zero; calls only at 9.99 µM; 1.5% of 340,000 active; AID 651658;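 active means melting point raised past a set limit in the mean and every replicate; three in four hits are not shown here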
Target sequence (Q9HCT0 whole entry, looked up): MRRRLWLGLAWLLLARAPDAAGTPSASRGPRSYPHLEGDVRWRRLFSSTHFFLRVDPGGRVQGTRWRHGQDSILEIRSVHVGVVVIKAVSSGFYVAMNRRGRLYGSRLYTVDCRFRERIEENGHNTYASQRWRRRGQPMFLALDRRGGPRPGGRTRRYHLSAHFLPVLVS
MLL AF4-AF9 inh = blocks AF4 peptide binding to human AF9 | AID 651704 | P42568 | AlphaScreen, biotin-AF4 peptide binding to FLAG-AF9 | inhibition, % at 10 µM | 0.47% of 350,000 active;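 active means every replicate reaching a set inhibition limit, whatever the replicate mean, cut at about 25% in these data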;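 further: 0% = plate neutral control median and 100% = total signal loss; the record names both 10 and 1 µM as test concentration; the first replicate is given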
Target sequence (P42568 whole entry, looked up): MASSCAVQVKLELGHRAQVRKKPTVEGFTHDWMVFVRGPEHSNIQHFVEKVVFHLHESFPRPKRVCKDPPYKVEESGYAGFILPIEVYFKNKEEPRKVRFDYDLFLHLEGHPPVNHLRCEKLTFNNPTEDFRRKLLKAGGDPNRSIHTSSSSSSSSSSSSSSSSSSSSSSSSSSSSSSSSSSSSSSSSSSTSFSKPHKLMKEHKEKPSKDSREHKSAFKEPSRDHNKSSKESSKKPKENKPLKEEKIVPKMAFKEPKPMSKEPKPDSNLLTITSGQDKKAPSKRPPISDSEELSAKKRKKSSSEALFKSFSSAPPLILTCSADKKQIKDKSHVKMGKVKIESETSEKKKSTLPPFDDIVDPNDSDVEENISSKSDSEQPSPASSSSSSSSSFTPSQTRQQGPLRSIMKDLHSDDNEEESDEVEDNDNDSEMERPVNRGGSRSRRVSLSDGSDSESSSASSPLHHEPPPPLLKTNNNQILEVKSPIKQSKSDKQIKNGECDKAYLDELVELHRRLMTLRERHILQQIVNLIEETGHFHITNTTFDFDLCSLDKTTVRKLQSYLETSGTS
Beta cell apopt = blocks beta cell apoptosis | AID 435005 | protection from apoptosis, % (concentration not given with the values) | INS-1E cytokine-induced death, ATP luminescence, 48 h; percent of positive-control rescue, neutral wells zero | 0.8% of 300,000 active;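 active means all replicates at 75% or more, or half of them and the mean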;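 further: 0% = cytokine-treated negative control wells and 100% = positive control rescue; higher means more ATP so stronger rescue from cytokine killing; wells of about 40 µL received 100 nL stock; the first replicate is given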
rRNA inh HTS = selective bacterial rRNA inhibition in E. coli | E. coli WT GFP vs humanized-ribosome RFP mutants, fluorescence, 24 h; active compounds read low; DMSO median 0, no signal -100 | GFP signal change (wild-type ribosome), % (test concentration not listed) | 1.6% of 350,000 active;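 active means significant combined selectivity score with lowered wild-type GFP, culture density cut under 30%, mutant RFP and density less affected; inactive means any of these conditions unmet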; further: one replicate is shown; some compounds called inactive have numbers as strong as hits
T cruzi repl = blocks replication of Trypanosoma cruzi. T. cruzi beta-gal in NIH3T3, luminescence, 90 h. inhibition, % (test concentration not listed). AID 1885. 1.4% of 300,000 active;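 active means mean inhibition across valid replicates above about 55%, limit read from the data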;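 further: signal also drops with host cell toxicity which is not excluded here; 0% = plate median of DMSO wells and 100% = zero luminescence signal; higher percent means less beta-gal luminescence so fewer parasites; stock transfer was 50 nL into about 50 µL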
A1 inh = inhibitors of the anti-apoptotic protein A1, read as caspase activation. 0.066% of 330,000 active. caspase activation, % (test concentration not listed). MEF A1-2A-BIM cells, Caspase-Glo 3/7 luminescence, 3 h; percent of clofoctol response, vehicle zero;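 active means over half of replicate activation scores above 10%, or exactly half above 10 with the replicate mean above 10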;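 further: wells of about 30 µL received 50 nL stock; many hits fall short of the cut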
rRNA inh HTS OD600 = second read-out of rRNA inh HTS, no call of its own (marks repeat the call); OD600 change, %; measured here: OD600 growth;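 optical density of the mix in the first replicate; 0 = DMSO median and -100 = no signal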
rRNA inh HTS RFP = further read-out of rRNA inh HTS, marked with its call; RFP signal change, %; measured here: RFP humanized mutant strains;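 first replicate; 0 = DMSO median and -100 = no signal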
* marks the source's active call; other numbers are inactive results; i = inactive; . = not tested or not shown; & = joins results of further samples. Some of the compounds tested, so the mix of outcomes need not match the whole.

SMILES | E coli growth | UCH37 DUB inh | FGF22 binding | MLL AF4-AF9 inh | Beta cell apopt | rRNA inh HTS | rRNA inh HTS OD600 | rRNA inh HTS RFP | T cruzi repl | A1 inh
Cc1ccc2c(Cl)cc(Cl)c(OCC(=O)NCCc3ccccn3)c2n1 | 0.68 | -2.8 | i | 0.7 | 0 | -23 | -34 | -10 | -2 | 0.4
COc1cccc(C(=O)NCc2ccc3[nH]c(C)cc3c2)c1 | 0.66 | 0.0 | i | 0.8 | -8 | 11 | 6 | 9.7 | -3 | -1.6
CN(C)S(=O)(=O)c1cccc(CSCc2cccc(S(=O)(=O)N(C)C)c2)c1 | 0.69 | 2.1 | i | -0.5 | 108* | -21 | -22 | -2.0 | 2 | -0.2
COc1ccc(/C=N/Nc2nccnc2Cl)c(OC)c1 | . | . | i | 3.2 | -8 | 16 | -3 | -4.1 | 10 | -6.6
C=C(C)CSc1nnc2[nH]c(=O)cc(N)n12 | 0.69 | -0.5 | . | . | -4 | . | . | . | -1 | 0.6
CCN1CCN(Cc2c(C(=O)N/N=C(\C)c3ccc(Cl)cc3)nnn2-c2nonc2N)CC1 | . | . | i | 8.0 | -20 | 3 | 14 | -0.6 | 11 | 0.1
C=CCn1c(SCC(=O)NCC2CCCO2)nc2sc(CC)cc2c1=O (centres undefined) | 0.66 | 4.0 | i | -1.3 | -6 | . | . | . | . | -0.3
CC(=O)Nc1ccc(NC(=O)c2ccnn2C)cc1 | 0.68 | -1.3 | i | 3.9 | 0 | 4 | 3 | -1.6 | -3 | -1.4
Cc1cc2cc3c(cc2nc1SCC(=O)O)CCC3 | 0.72 | 4.2 | i | -10 | 1 | -22 | -22 | -5.7 | 13 | 0.3
O=C(Nc1ccc2c(c1)OCO2)c1cccc2c1C(=O)N(Cc1cccnc1)C2 | 0.73 | 3.1 | . | . | 3 | . | . | . | 11 | 0.2

Not a retest: an excerpt of the list.
SMILES | E coli growth | UCH37 DUB inh | FGF22 binding | MLL AF4-AF9 inh | Beta cell apopt | rRNA inh HTS | rRNA inh HTS OD600 | rRNA inh HTS RFP | T cruzi repl | A1 inh
Cc1ccc2c(Cl)cc(Cl)c(OCC(=O)NCCc3ccccn3)c2n1 | 0.68 | -2.8 | i | 0.7 | 0 | -23 | -34 | -10 | -2 | 0.4
COc1cccc(C(=O)NCc2ccc3[nH]c(C)cc3c2)c1 | 0.66 | 0.0 | i | 0.8 | -8 | 11 | 6 | 9.7 | -3 | -1.6

(further entries)
SMILES | E coli growth | UCH37 DUB inh | FGF22 binding | MLL AF4-AF9 inh | Beta cell apopt | rRNA inh HTS | rRNA inh HTS OD600 | rRNA inh HTS RFP | T cruzi repl | A1 inh
O=C(NCC1CCCCC1)c1cccnc1 | 0.67 | 2.6 | i | 2.4 | -1 | 5 | 4 | -1.0 | -14 | -0.8
Cc1ccc(C2=Nc3ccccc3SC(c3cccc([N+](=O)[O-])c3)C2)cc1 (centres undefined) | 0.71 | -0.8 | i | 5.8 | -2 | -9 | -8 | 1.8 | 5 | -0.3
O=C(Nc1ccccc1)c1ccncc1 | 0.7 | 4.5 | . | . | 2 | . | . | . | -3 | -0.3
COc1ccc(CN2CCC(CNC(=O)NC3CCCCC3)CC2)cc1 | 0.73 | -2.0 | . | . | 13 | . | . | . | 29 | 1.3
CC1(C)CC(=O)C=C(N2CCOCC2)C1 | 0.65 | 1.4 | . | -0.5 | -2 | . | . | . | -2 | 0.9
O=C(C1=C[C@@H](c2csc3ccccc23)C[C@@H](OCc2ccc(CO)cc2)O1)N1CCN(Cc2ccc3c(c2)OCO3)CC1 | . | . | i | -0.7&0.1&2.1 | 27 | -1 | -5 | 2.1 | 22 | 1.5
Cc1cccc(N(CC(=O)NCCSCc2ccccc2)S(C)(=O)=O)c1 | 0.71 | 3.2 | i | -1.3 | 4 | -16 | -19 | -5.3 | -8 | -0.2
O=C(NCC1CCCO1)c1onc(CSc2cccc3ccccc23)c1C(=O)O (centres undefined) | . | . | . | -101 | -2 | -33 | -39 | -11 | -1 | 0.7
Cc1ccc(S(=O)(=O)c2ccc(Cl)cc2)cc1S(=O)(=O)N1CCOCC1 | 0.7 | 5.7 | . | . | . | . | . | . | 20 | 0.6
O=C(C[N+]1(CC#Cc2ccccc2)CCOCC1)c1ccccc1 | 0.69 | 3.1 | i | 0.8 | 3 | -5 | -5 | 2.5 | 2 | 0.5
CN(C)c1ccc(N/C(=N\S(=O)(=O)c2cccs2)c2ccccc2)cc1 | . | . | i | 21 | 0 | -14 | -14 | -2.4 | -4 | -0.2
CC(=O)c1sc(NC(=O)c2ccc(F)c(F)c2)nc1C | 0.73 | -3.0 | . | . | 14 | . | . | . | -3 | -13
O=C(C[n+]1ccc(C(=O)c2ccccc2)cc1)Nc1ccc(C(F)(F)F)cc1 | 0.65 | 6.8 | . | 7.3 | . | -59 | -78 | -22 | -4 | 0.6
O=C(N/N=C/c1ccccc1[N+](=O)[O-])c1ccc2c(c1)OCCO2 | . | . | i | 0.0 | 2 | 4 | 5 | 1.0 | -6 | -14
Cc1ncoc1C(=O)Nc1ccccc1-c1ccccc1 | 0.75 | 1.9 | . | . | -4 | . | . | . | -18 | 0.9
CC(=O)C1=C(O)C(=O)N(C)C1c1ccccc1[N+](=O)[O-] (centres undefined) | 0.68 | -12 | i | . | 0 | 8 | -14 | 0.1 | 3 | 0.0
C/C(=N\NC(=O)c1ccc(Cl)cc1)c1ccccn1 | . | . | i | 5.6 | 105* | -30 | -28 | -7.2 | 61* | -4.9
COc1cc(CNn2cn[nH]c2=S)ccc1OCC(=O)NC(C)(C)C | . | . | i | -7.5 | 8 | -2 | 5 | -2.6 | 5 | -0.6
Cc1ccc(C(=O)N2c3ccccc3OCC2C)cc1 (centres undefined) | 0.66 | 5.5 | i | 0.5 | 3 | -2 | 1 | -2.8 | -6 | -0.7
Cc1ccc(C(=O)Nc2ncccc2O)o1 | 0.66 | 5.6 | i | 1.0 | -4 | 4 | 4 | -3.5 | -3 | -0.3
O=C(NCc1cccnc1)Nc1ccccc1 | 0.67 | 3.7 | i | 1.8 | -1 | -6 | 8 | -2.7 | -19 | -0.3
Cc1cccn2c(=O)c(C=O)c(Nc3ccccc3)nc12 | 0.67 | 4.2 | . | . | -10 | . | . | . | 6 | 0.4
O=C1c2cccc3cccc(c23)C(=O)N1c1ccncc1 | 0.75 | -101 | . | . | -2 | . | . | . | . | 0.1
COc1ccc(NC(=O)CCNS(=O)(=O)c2cccc3nsnc23)c(OC)c1 | 0.68 | 4.1 | i | 0.8 | 1 | -1 | -25 | 14 | 3 | -0.5
Cc1cccc(C=NOCCc2ccccc2)n1 | 0.68 | 1.5 | i | 0.4 | . | 4 | 3 | 1.8 | . | .
O=C(NCc1ccccc1)c1cc(S(=O)(=O)N2CCOCC2)ccc1F | 0.72 | 5.1 | . | . | 0 | . | . | . | 18 | 0.7
CNc1snc(C)c1C(=O)OC(C)C(=O)Nc1ccccc1 (centres undefined) | 0.7 | 0.7 | i | -1.0 | -5 | -1 | -12 | 0.7 | . | -1.0
Cc1nc2c(sc3nc(N4CCOCC4)c4c(c32)CC(C)(C)OC4)c(-c2ccccc2)c1C(=O)O | 0.69 | -17 | i | -2.0 | 3 | 69 | 12 | 14 | -4 | 0.6
COCCSc1nnc(NC(=O)c2ccc(NC(C)=O)cc2)s1 | . | . | i | -12 | -7 | 2 | 19 | 2.3 | -14 | -0.8
COc1ccc(NC(=O)COC(=O)CCC2CCCC2)c(OC)c1 | 0.68 | -1.0 | i | -1.1 | 3 | -3 | 9 | -1.8 | . | 1.2

Some of these compounds in order of their number in UCH37 DUB inh, largest number first.
Compound | UCH37 DUB inh
Cc1ccc(S(=O)(=O)c2ccc(Cl)cc2)cc1S(=O)(=O)N1CCOCC1 | 5.7
Cc1cccc(N(CC(=O)NCCSCc2ccccc2)S(C)(=O)=O)c1 | 3.2
CC1(C)CC(=O)C=C(N2CCOCC2)C1 | 1.4
COc1ccc(CN2CCC(CNC(=O)NC3CCCCC3)CC2)cc1 | -2.0

Other records follow.
SMILES | E coli growth | UCH37 DUB inh | FGF22 binding | MLL AF4-AF9 inh | Beta cell apopt | rRNA inh HTS | rRNA inh HTS OD600 | rRNA inh HTS RFP | T cruzi repl | A1 inh
Cc1cc(OCc2cc(C(=O)N(C)C(C)c3ccccn3)no2)cc(C)c1Cl (centres undefined) | 0.67 | 7.3 | i | -4.9 | -3 | -12 | -59 | -2.0 | 19 | -3.1
CCCNC(=O)Cn1nc(C(F)(F)F)c2c1CCCC2 | 0.71 | 1.3 | . | . | 2 | . | . | . | -16 | 1.0
CC(=O)SCCC(=O)N1C(C)CCCC1C(=O)O (centres undefined) | 0.72 | 0.3 | . | . | -5 | . | . | . | -23 | 0.5
CC1CCCC(C)N1S(=O)(=O)c1ccc(NC(=O)CNCC2CCCO2)cc1 (centres undefined) | 0.71 | 3.4 | . | . | -4 | . | . | . | 24 | 0.3
CN(C(=O)COC(=O)c1cccc(F)c1)c1ccccc1 | 0.65 | 3.4 | i | -3.2 | 4 | 2 | 2 | 0.5 | -3 | 0.3
Cc1c(F)cccc1NC(=O)c1ccc2c(c1)CCN2S(C)(=O)=O | 0.69 | 0.1 | i | -11 | 1 | -16 | -20 | 0.5 | -15 | -0.5
Cc1ccc(Cl)cc1N1CCN(CC(=O)NC2CCCc3ccccc32)CC1 (centres undefined) | 0.73 | 2.0 | i | -1.1 | -3 | -16 | -22 | 12 | 20 | 0.4
CC1=C(C)C(=O)N(C(C)CCc2ccccc2)C1=O (centres undefined) | 0.68 | 1.3 | i | -4.3 | -2 | 15 | 3 | -0.1 | 5 | -0.3
CCc1ccc(NC(=O)CCC(=O)N2CCSc3ccccc32)cc1 | 0.67 | 1.6 | i | -2.9 | -2 | -22 | -29 | -2.4 | -5 | -1.5
COc1ccc(OCC(=O)Nc2ccc(NC(=O)c3ccco3)cc2)cc1 | 0.74 | 3.4 | . | . | 2 | . | . | . | -9 | -0.3
O=C(c1cccc(F)c1)N1CCC(N2CCCCCC2)CC1 | 0.76 | -1.1 | . | . | . | . | . | . | 24 | -0.2
CCCC/C(O)=C1\C(=O)CC(C)(C)CC1=NCCCCCC(=O)O | 0.72 | 5.3 | i | -3.2 | 3 | 8 | 13 | 0.2 | -2 | 0.9
C/C(=N\NC(=O)c1nnn(-c2nonc2N)c1CN(C)c1ccccc1)c1cccnc1 | . | . | i | 0.5 | -1 | 0 | 7 | -6.7 | -10 | -0.8
CCOc1ccccc1N1CN(CC)CNC1=S | 0.67 | -0.3 | . | . | 0 | . | . | . | -8 | -0.8
COc1ccc(CN(C(=O)Cc2c[nH]c3ccccc23)C(C(=O)NC2CCCCC2)c2ccc(C)o2)cc1 (centres undefined) | 0.77 | 0.8 | . | . | 9 | . | . | . | 36 | 0.3
O=C(O)CNC(=O)/C(=C\c1ccco1)NC(=O)c1ccco1 | 0.69 | 6.9 | i | 0.7 | -2 | 24 | 7 | 3.8 | -22 | 0.3
